# AmpC nodet inh: Promiscuous and Specific Inhibitors of AmpC Beta-Lactamase (assay without detergent); P00811; AmpC nitrocefin hydrolysis, absorbance 480 nm, no detergent; potencies from a single point are estimates; Potency, µM (top dose mostly 28.7 µM), for inactives: at the top dose activity change, negative = inhibition; hit rate 1.8% among 71,000; active = falling curve, for most hits resting on a single point; inconclusive = weak or doubtful change; inactive = flat or rising curve; note: % of control where 0% means no effect; about half of the hits show no inhibition at the top dose; a quarter of the inactives give rising signals
# Target sequence (P00811 whole entry, looked up): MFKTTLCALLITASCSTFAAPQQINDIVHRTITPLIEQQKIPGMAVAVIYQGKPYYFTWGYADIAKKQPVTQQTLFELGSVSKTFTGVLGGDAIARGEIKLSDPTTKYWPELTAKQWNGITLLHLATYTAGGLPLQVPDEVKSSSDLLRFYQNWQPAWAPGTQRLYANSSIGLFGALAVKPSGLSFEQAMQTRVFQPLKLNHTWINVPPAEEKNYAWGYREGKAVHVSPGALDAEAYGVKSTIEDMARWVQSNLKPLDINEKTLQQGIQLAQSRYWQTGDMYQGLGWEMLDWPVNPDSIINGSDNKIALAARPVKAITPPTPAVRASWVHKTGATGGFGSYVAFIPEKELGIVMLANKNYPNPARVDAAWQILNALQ
#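 Enzyme, pH 7.0 phosphate. Compound titrations were pre-incubated with AmpC for 15 min at room temperature before nitrocefin (stock 800 uM) addition; product formation was recorded at 480 nm every 20 s for 4 min.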
# An asterisk follows results filed as active; & = joins results of further samples; [ ] = remark or other dose. Potency is the fitted concentration of half-maximal effect. An excerpt; count on the stated rates, not on these rows.
SMILES,AmpC nodet inh
Cc1ccc(OCC(=O)N2CCN(C(=O)Cc3ccccc3)CC2)cc1,69%
CC(C)(C)NC[C@@H](O)c1ccc(O)c(CO)n1,8%[5.75 µM]
COc1ccccc1CN1CCCC2(CCN(C(=O)c3cccc(F)c3)CC2)C1,2%
CC(=O)Nc1ccc(-n2c(C)nc(=O)c(-c3ccccc3)c2C)cc1,-7%
COc1ccc(CCNC(=O)C2CC(=O)N(C3CCCC3)C2)cc1OC (stereo not drawn),-8%
C=CCN1C(c2ccccc2)=CS/C1=C(\C#N)c1nnc2n1CCCCC2,63%
Cn1c(=O)cc(SCC(=O)N2CCCC2)c2cc(Cl)ccc21,73%
Cc1ccccc1NC(=O)c1cc(N)ccc1N1CCCCC1,41%
CC(C)C(NC(=O)OCc1ccccc1)C(=O)OCC(=O)N1C(C)CCCC1C (stereo not drawn),74%
COc1cccc(-c2cc(=O)c3ccccc3o2)c1N,60%&6%
COc1ccc(CC(=O)c2ccccc2C(=O)O)cc1,-6%
Cn1cc(Cl)c(C(=O)N2CCN(c3ncccn3)CC2)n1,1%
CC1CCC(C(C)C)C(OC(=O)COC(=O)c2cccn2C)C1 (stereo not drawn),13%
CCOC(=O)N1CCN(C(=O)COc2ccc(S(=O)(=O)NC(C)C)cc2)CC1,21%
Cc1nc(C2CC(=O)OC23CCCCC3)cs1 (stereo not drawn),-4%
COc1cc(NC(=O)c2cc(OC)c(OC)c(OC)c2)c(OC)cc1NC(=O)CN1CCCCC1,99%
COc1cccc(N(C(=O)CNC(=O)c2ccco2)C(C(=O)NC2CCCCC2)c2ccncc2)c1 (stereo not drawn),47%
O=C(CSc1nnc2scc(-c3ccccc3)n12)Nc1nsc(-c2ccc(Cl)cc2)n1,-17%
Cc1coc(C)c1C(=O)CC1(O)C(=O)Nc2cc(Cl)cc(Cl)c21 (stereo not drawn),0%
COc1ccccc1-c1coc2c(CN3CCN(CCO)CC3)c(O)ccc2c1=O,-3%
S=c1nc(-c2nc(=S)[nH]c3c2CCCCCCCCCC3)c2c([nH]1)CCCCCCCCCC2,-1%[5.75 µM]
Cn1c(=O)n(C)c2cc(C(=O)O)ccc21,4%
Cn1c2c(c(=O)n(C)c1=O)C(c1ccc(Br)cc1)Nc1ccccc1O2 (stereo not drawn),37%
O=C1C[C@@H](c2ccc(O)cc2)Oc2cc(O)cc(O)c21,-19%
Cn1nc(CC(=O)Nc2ccc(N3CCN(C(=O)OC(C)(C)C)CC3)cc2)c2ccccc2c1=O,99%

# Next part, starting with the last 2 of the part before.
SMILES,AmpC nodet inh
O=C1C[C@@H](c2ccc(O)cc2)Oc2cc(O)cc(O)c21,-19%
Cn1nc(CC(=O)Nc2ccc(N3CCN(C(=O)OC(C)(C)C)CC3)cc2)c2ccccc2c1=O,99%
O=C(CSc1nc2c(cnn2-c2ccc(F)cc2)c(=O)[nH]1)N1CCOCC1,-3%
O=C(NC1CCCCC1)c1nc2c(nnn2Cc2ccccc2Cl)c(=O)[nH]1,-5%
CN(C)C(=O)Cn1cnc2c(cnn2-c2ccccc2Cl)c1=O,-4%
O=C1CC(c2ccccc2)CC(O)=C1C=NCCN1CCN(C(=O)Nc2ccccc2)CC1 (stereo not drawn),94%
Cc1noc(C)c1C(=O)N1CCN(CCc2ccccc2)CC1,0%
Cc1nn(Cc2c(Cl)cccc2Cl)c(C)c1NC(=O)c1cc(C(C)C)on1,68%
COC(=O)c1cccc(NC(=O)c2cccc(OC)c2)c1,-9%
COC(=O)[C@@]1(Cc2ccccc2)[C@H]2c3cc(C(=O)N4CCCC4)n(Cc4nc5ccccc5[nH]4)c3C[C@H]2CN1C(=O)c1ccccc1,131%
CCOc1ccc2c(ccc(/C=C\c3cc(C)c4cccnc4c3O)[n+]2C)c1,29%[5.75 µM]
O=C(Nc1ccccc1F)NC1CCN(Cc2nnnn2Cc2ccc(F)cc2)CC1,55%
O=C(NCCc1ccccc1)C1CCN(C(=O)c2sccc2-n2cccc2)CC1,52%
COc1ccc(OC)c(S(=O)(=O)N(C)CC(=O)Nc2ccc3c(c2)OCCO3)c1,3%
O=C(CSc1nnc(-c2ccc(S(=O)(=O)N3CCCC3)cc2)o1)NCc1ccco1,13%
Cc1cc(NS(=O)(=O)c2ccc(NC(=O)c3ccco3)cc2)no1,-4%
CC1Cc2ccccc2N1C(=O)CSc1nnnn1-c1ccc2c(c1)OCCO2 (stereo not drawn),-4%
N#Cc1nc(Cc2ccccc2)oc1NCCCn1ccnc1,5%
CCOC(=O)c1ccc(NC(=O)C2C3CCC(C3)C2C(=O)O)cc1 (stereo not drawn),-10%
CCN(CC(=O)NC)S(=O)(=O)c1ccc(C)cc1,-1%
c1nc(NCCc2cnc[nH]2)c2[nH]cnc2n1,-5%[5.75 µM]
Cn1cnnc1SCc1ccc(C(=O)O)cc1,15%
CS(=O)(=O)N(CC(=O)NC1CCCC1)c1cccc(F)c1,1%
COc1ccccc1-c1cc(-n2ccnc2)ncn1,14%
COc1ccc(C2(C(=O)Nc3c(C)n(C)n(-c4ccccc4)c3=O)CCCC2)cc1OC,4%
Cc1nnc(SCC(=O)Nc2ccc3c4c(cccc24)CC3)n1C,6%
COc1ccc(-c2csc(NC(C)=O)n2)cc1OC,-6%
# Continued:
SMILES,AmpC nodet inh
Cc1n[nH]c(C)c1C(=O)CC1(O)C(=O)N(CCc2ccccc2)c2ccc(Cl)cc21 (stereo not drawn),77%
CN(C)/N=N\c1nc[nH]c1C(N)=O,-6%[12.8 µM]
O=C1CCc2cc(S(=O)(=O)N3CCN(C(=O)c4ccco4)CC3)ccc2N1,-8%
Cc1cc(C)c2c(n1)sc1c(N3CCN(CCO)CC3)ncnc12,43%
Clc1ccc(OCc2nc(-c3ccccn3)n[nH]2)cc1,4%
CCc1nc(N2CCCCC2)c2oc3ccccc3c2n1,41%
COCCOC(=O)c1[nH]c2c(c1C)C(=O)C(C(=O)OC)C(C)C2 (stereo not drawn),6%
c1ccc(SCc2nc(-c3ccncc3)no2)cc1,10%
CCCCOc1ccc(C2(C(=O)O)CCCC2)cc1,-7%
COc1ccc(CCn2nnnc2C(c2ccccc2)N2CCN(C)CC2)cc1OC (stereo not drawn),15%
CN1C(=O)OC(C)(C)C1=O,-8%[12.8 µM]
COc1ccccc1NC(=O)N1CCC(C(=O)c2ccc(F)cc2)CC1,14%
O=C(CSc1ncccc1-c1nc2ccccc2[nH]1)N1CCCCC1,10%
Cc1ccc2c(N)c(C)ccc2c1,-1%
CCOC(=O)C1CCCN(CCC(=O)Nc2ccc3c(c2)CCC3)C1 (stereo not drawn),32%
CCOC(=O)c1[nH]c(C)c(C(=O)Nc2cccc(Cl)c2C)c1C,18%
C1=C(CCNc2nnnn2-c2ccccc2)CCCC1,-4%
O=C(NCCNC(=O)c1ccco1)c1cccc(F)c1,-9%
O=C1OC(N2CCN(C(=O)c3ccco3)CC2)c2ccccc21 (stereo not drawn),-7%
O=C(O)c1cccc(C[C@H](Br)C(=O)O)c1,-2%[5.75 µM]
CC1Cn2c(CCc3ccccc3)nnc2S1 (stereo not drawn),1%
Clc1ccc(-n2ncc3c(NCc4ccc5c(c4)OCO5)ncnc32)cc1,-22%
Cn1c(=O)c(-c2cccs2)nc2cnc(OCc3ccccc3)nc21,5%
CCOC(=O)CN1Cc2cccc(C(=O)O)c2C1=O,12%
CCOC(=O)c1c(C)n(C)c2ccc(OC)c(NC(=O)CN3CCN(C(=O)c4ccco4)CC3)c12,114%

# Reformatted with each value named: part of the list above.
smiles: CN1C(=O)OC(C)(C)C1=O
  AmpC nodet inh: -8%[12.8 µM]
smiles: COc1ccccc1NC(=O)N1CCC(C(=O)c2ccc(F)cc2)CC1
  AmpC nodet inh: 14%
smiles: O=C(CSc1ncccc1-c1nc2ccccc2[nH]1)N1CCCCC1
  AmpC nodet inh: 10%

# Next part:
SMILES,AmpC nodet inh
CN1CCN(c2ncc3nc(-c4ccccc4)c(=O)n(C4CC4)c3n2)CC1,52%
COc1c(C)c2c(c(O)c1C/C=C(\C)CCC(=O)O)C(=O)OC2,10%
CCOc1ccc(N(Cc2cc3cc(OC)ccc3[nH]c2=O)S(C)(=O)=O)cc1,12%
CC(C)OC(=O)CSc1nnc(Cc2ccccc2)n1Cc1ccco1,25%
COc1ccc(NC(=O)C2CCCN2S(=O)(=O)c2ccc3c(c2)CCC(=O)N3)cc1Cl (stereo not drawn),14%
Cc1nc(COC(=O)c2ccc(S(=O)(=O)N3CCCC3)cc2)cs1,36%
Cc1ccc(S(=O)(=O)NC(CC(=O)N2CCOCC2)c2ccco2)cc1 (stereo not drawn),-7%
CCOC(=O)c1ccc(NC(=O)N(CC)CC)cc1,2%
COc1cccc(C=Nc2cc(C)on2)c1O,-5%
COCc1cc(C2SCC(=O)Nc3c2c(=O)[nH]n3C(C)C)ccc1OC (stereo not drawn),1%
O=C(NCCCN1CCN(c2ccc(F)cc2)CC1)c1cccc(N2CCCC2=O)c1,11%
CC(C)Oc1ccc(C2/C(=C(/O)c3ccc(F)cc3)C(=O)C(=O)N2CCCN(C)C)cc1 (stereo not drawn),-8%
CCNC(=O)CC1C(=O)N(c2ccccc2)C(=O)N1CCc1ccc(OC)cc1 (stereo not drawn),13%
O=C1CCCC2=C1C(c1ccncc1)c1c(nc(SCc3ccccc3)[nH]c1=O)N2 (stereo not drawn),19%
CCn1c(=N)c(C(=O)NCCCOC)cc2c(=O)n3cccc(C)c3nc21,-5%
Cc1ccc2c(CN3CCCc4ccccc43)cc(=O)oc2c1C,14%
CCc1ccccc1NC1c2ccccc2C(=O)N1c1cc(C)ccn1 (stereo not drawn),7%
CC(C)=CCSc1nnc(CCNC(=O)OC(C)(C)C)o1,38%
COc1ccc(C(=O)N2CCC3(CC2)CN(c2ccc(-c4ccccc4)cc2)C3)cc1,32%
COc1cc(OC)cc(C(=O)N(CN2CCCC2=O)c2ccccc2OC)c1,28%
O=C(O)CCS(=O)(=O)Cc1ccccc1F,0%
CCCc1cc(=O)[nH]c(SCC(=O)Nc2nonc2N)n1,-4%
COc1cccc2sc(Nc3nnc(-c4ccccc4Cl)o3)nc12,101%
CN1C(=O)CSc2ccc(NC(=O)N3CCc4ccccc43)cc21,17%
CCOC(=O)c1[nH]c(C)c(C(=O)NCCC2=CCCCC2)c1C,8%
# Next part.
SMILES,AmpC nodet inh
C=CCn1c(SCc2cccnc2)nnc1-c1ccncc1,-8%
CC(C)C[C@H](NC(=O)N1CCN(c2ccccc2)CC1)C(=O)O,-3%
O=C(CSc1ncccn1)Nn1cnnc1,-9%
O=S(=O)(c1ccccc1)N1CCC[C@@]2(CCN(C(c3ccccc3)c3ccccc3)C2)C1,15%
Cn1c(C(O)c2ccc(Cl)cc2)nc(Cl)c1Cl (stereo not drawn),-6%
O=C(Nc1ccc2c(c1)OCCO2)c1ccco1,3%
COc1ccccc1OCCCCNCCO,11%
COCC(C)n1c(C)cc(C(=O)COC(=O)c2c(NC(C)=O)sc(C)c2C)c1C (stereo not drawn),67%
COCCn1c(SCC(=O)c2ccc(F)cc2)nnc1C(C)C,-6%
NS(=O)(=O)c1cc(C(=O)O)c(NCc2ccco2)cc1Cl,-13%
OC(CCN1CCCCC1)(c1ccccc1)c1ccccc1,1%[5.75 µM]
COc1ccccc1Nc1nc(N)nc(CSc2nc(C)cc(C)n2)n1,52%
O=C(O)[C@H](Cc1ccccc1)N1C(=O)c2ccncc2C1=O,-1%
Cc1csc(NC(=O)c2ccccc2C(=O)O)n1,0%
Cc1ccc(NC2=NC(c3ccccc3)n3c(nc(C)cc3=O)N2)cc1 (stereo not drawn),-6%
CCOc1ccc(NC(=O)N(CCN2CCOCC2)Cc2ccc3c(c2)CCCN3CC)cc1,128%
COCCn1c(SCC(=O)Nc2nc(C)c(Cl)cc2Cl)nc2ccccc21,125%
Cc1ccc(N(CC(=O)NCc2ccc3c(c2)OCO3)S(C)(=O)=O)cc1,16%
c1ccc(CCNc2ncnc3nc[nH]c23)cc1,-12%
Cc1c(=O)n(OCc2ccccc2F)c2ccccc2[n+]1[O-],14%
CCOC(=O)C1CCCN(S(=O)(=O)c2cn(C)c(=O)n(C)c2=O)C1 (stereo not drawn),104%
CN1CCN(S(=O)(=O)c2ccc(NC(=O)C3CCCCC3)cc2)CC1,8%
Cc1ccc(S(=O)(=O)Cn2nnnc2CN2CCOCC2)cc1,14%
COc1ccc(CCNC2=NCC(C)S2)cc1 (stereo not drawn),-7%
CCOC(=O)c1ccc(NC(=O)CC2SCCNC2=O)cc1 (stereo not drawn),-11%
N[C@@H](Cc1[nH]nc2ccccc12)C(=O)O,-18%[5.75 µM]
CCCn1c(SCC(=O)N2CCCc3ccccc32)nc2c1c(=O)n(C)c(=O)n2C,27%
C=CCn1c(O)c(C=Nc2ccc(OC)cc2C)c(=O)[nH]c1=O,93%
CCOC(=O)N1CCN(C(=O)c2cc3c(-c4ccc(Cl)cc4)nn(C)c3s2)CC1,2.5µM*[single pt active]
CC1CCC(NC(=O)CC2Oc3ccccc3NC2=O)CC1 (stereo not drawn),8%

# Entries listed so far that have fluorine:
SMILES,AmpC nodet inh
COc1ccccc1CN1CCCC2(CCN(C(=O)c3cccc(F)c3)CC2)C1,2%
O=C(CSc1nc2c(cnn2-c2ccc(F)cc2)c(=O)[nH]1)N1CCOCC1,-3%
O=C(Nc1ccccc1F)NC1CCN(Cc2nnnn2Cc2ccc(F)cc2)CC1,55%
CS(=O)(=O)N(CC(=O)NC1CCCC1)c1cccc(F)c1,1%
COc1ccccc1NC(=O)N1CCC(C(=O)c2ccc(F)cc2)CC1,14%
O=C(NCCNC(=O)c1ccco1)c1cccc(F)c1,-9%
O=C(NCCCN1CCN(c2ccc(F)cc2)CC1)c1cccc(N2CCCC2=O)c1,11%
CC(C)Oc1ccc(C2/C(=C(/O)c3ccc(F)cc3)C(=O)C(=O)N2CCCN(C)C)cc1 (stereo not drawn),-8%
O=C(O)CCS(=O)(=O)Cc1ccccc1F,0%
COCCn1c(SCC(=O)c2ccc(F)cc2)nnc1C(C)C,-6%
Cc1c(=O)n(OCc2ccccc2F)c2ccccc2[n+]1[O-],14%
